Bioassay records (PubChem)
UUG fidelity: modulators of start codon recognition fidelity in yeast. S. cerevisiae UUG-firefly luciferase reporter, luminescence/redox ratio. activity score, % at 18.7 µM. 350,000 tested, 0.13% active. AID 602363;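 active means replicate mean at a twofold rise or more, about +100% in these data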;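 further: firefly luciferase made from a UUG start codon reports start codon fidelity; reporter light over untreated wells divided by growth signal over untreated wells; some hits fall short of that in this replicate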
Env fusion inh: HIV envelope-mediated fusion inhibition; HeLa-JRFL Env/CEM21 cell fusion, luciferase; inhibition, % at 12.3 µM; 360,000 tested, 1.1% active; AID 651610;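 active means mean replicate inhibition score of at least 50 and every replicate individually at or above 50; inconclusive means only one of the two criteria met; inactive means mean below 50 and not all replicates reaching 50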;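 further: 0% = plate neutral controls and 100% = maraviroc near 300 nM; one replicate is shown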
* marks the source's active call; other numbers are inactive results; ? = inconclusive; & = joins results of further samples; [ ] = remark or other dose. A portion of the library; rates above refer to the full screens.

mol | UUG fidelity | Env fusion inh
Cc1noc(C)c1S(=O)(=O)Nc1ccc2c(c1)C(=O)N([C@@H](C)CO)C[C@@H](C)[C@H](CN(C)C(=O)Nc1ccc(C(F)(F)F)cc1)OCCCC[C@H](C)O2 | -6.7 | 10.9[16.7 µM]
Cc1noc(C)c1S(=O)(=O)N(C)C[C@H]1Oc2ccc(NC(=O)C3CCCCC3)cc2CC(=O)N([C@H](C)CO)C[C@@H]1C | 4.6 | -12.4[16.7 µM]
CCc1csc(N2[C@H](C#N)[C@@H](c3ccc(-c4cccc(F)c4)cc3)[C@H]2CO)n1 | -10.6 | -4.7[16.7 µM]
Cc1ccc(S(=O)(=O)N(C)C[C@@H]2Oc3ncc(C#Cc4ccccc4)cc3C(=O)N([C@H](C)CO)C[C@@H]2C)cc1 | -5.4 | 49.0[16.7 µM]
CC(=O)N(C)C[C@@H]1Oc2cc(C#Cc3ccccn3)ccc2S(=O)(=O)N([C@H](C)CO)C[C@H]1C | 12.2 | 3.8[16.7 µM]
Cc1noc(C)c1NC(=O)N(C)C[C@H]1Oc2ccc(NC(=O)Cc3ccccc3)cc2CC(=O)N([C@@H](C)CO)C[C@H]1C | -7.9 | 6.1[16.7 µM]
C[C@@H]1CN([C@@H](C)CO)C(=O)Cc2cc(NC(=O)Nc3ccccc3)ccc2O[C@@H]1CN(C)S(=O)(=O)c1ccc(F)cc1 | 11.9 | 56.4*[16.7 µM]
C[C@@H](O)C#Cc1ccc2c(c1)O[C@@H](CN(C)C(=O)C1CCCCC1)[C@@H](C)CN([C@@H](C)CO)S2(=O)=O | 4.5 | -6.0[16.7 µM]
O=C(N[C@H]1CC[C@H](CCNS(=O)(=O)c2ccc(Cl)cc2)O[C@H]1CO)c1cccc(F)c1 | -0.7 | 13.2[16.7 µM]
CNC(=O)C[C@@H]1CC[C@@H]2[C@@H](COc3ccc(NC(=O)c4ccc5c(c4)OCO5)cc3C(=O)N2C)O1 | 1.5 | 2.5[16.7 µM]
C[C@@H]1CCCCO[C@H](CN(C)C(=O)c2ccncc2)[C@H](C)CN([C@@H](C)CO)C(=O)c2cc(NC(=O)Cc3ccccc3)ccc2O1 | 14.4 | 4.9[16.7 µM]
COc1ccc([Si](C)(C)[C@H]2[C@H](CCO)O[C@@]3(C(=O)N(Cc4ccccc4)c4ccc(N5CCCCC5=O)cc43)[C@@H]2C)cc1 | 3.4 | 25.9[16.7 µM]
O=C(NCC[C@H]1CC[C@@H](NC(=O)C2CCCC2)[C@H](CO)O1)Nc1ccc(Cl)cc1 | 9.9 | -6.9[16.7 µM]
CN(C)C(=O)C[C@H]1C[C@@H]2c3cc(NC(=O)C4CCC4)ccc3O[C@@H]2[C@H](CO)O1 | -14.1 | -15.7[16.7 µM]
CC(=O)N(C)C[C@H]1Oc2cc(-c3cccc(F)c3)ccc2S(=O)(=O)N([C@@H](C)CO)C[C@H]1C | 25.4 | -0.5[16.7 µM]
CC(C)C#Cc1ccc2c(c1)O[C@@H](CN(C)Cc1ccncc1)[C@H](C)CN([C@H](C)CO)S2(=O)=O | 14.3 | 28.1[16.7 µM]
C[C@H](CO)N1C[C@H](C)[C@@H](CN(C)C(=O)C2CCCCC2)Oc2cc(-c3cncnc3)ccc2S1(=O)=O | 6.4 | ?
Cc1ccc(S(=O)(=O)N[C@@H]2C=C[C@@H](CC(=O)N3CCc4ccccc4C3)O[C@@H]2CO)cc1 | -3.1 | 4.1[16.7 µM]
C[C@@H]1CN([C@@H](C)CO)C(=O)c2cc(C3=CCCC3)cnc2O[C@@H]1CN(C)C(=O)C1CCCCC1 | 15.1 | 5.8[16.7 µM]
O=C(CCN1CCCCC1)NCC[C@@H]1CC[C@H](NC(=O)C2CCC2)[C@H](CO)O1 | -1.3 | 8.9[16.7 µM]

Of the compounds above, 2 contain a Cl atom.
mol | UUG fidelity | Env fusion inh
O=C(N[C@H]1CC[C@H](CCNS(=O)(=O)c2ccc(Cl)cc2)O[C@H]1CO)c1cccc(F)c1 | -0.7 | 13.2[16.7 µM]
O=C(NCC[C@H]1CC[C@@H](NC(=O)C2CCCC2)[C@H](CO)O1)Nc1ccc(Cl)cc1 | 9.9 | -6.9[16.7 µM]

The listing picks up with the 6 entries that preceded the break.
mol | UUG fidelity | Env fusion inh
CC(=O)N(C)C[C@H]1Oc2cc(-c3cccc(F)c3)ccc2S(=O)(=O)N([C@@H](C)CO)C[C@H]1C | 25.4 | -0.5[16.7 µM]
CC(C)C#Cc1ccc2c(c1)O[C@@H](CN(C)Cc1ccncc1)[C@H](C)CN([C@H](C)CO)S2(=O)=O | 14.3 | 28.1[16.7 µM]
C[C@H](CO)N1C[C@H](C)[C@@H](CN(C)C(=O)C2CCCCC2)Oc2cc(-c3cncnc3)ccc2S1(=O)=O | 6.4 | ?
Cc1ccc(S(=O)(=O)N[C@@H]2C=C[C@@H](CC(=O)N3CCc4ccccc4C3)O[C@@H]2CO)cc1 | -3.1 | 4.1[16.7 µM]
C[C@@H]1CN([C@@H](C)CO)C(=O)c2cc(C3=CCCC3)cnc2O[C@@H]1CN(C)C(=O)C1CCCCC1 | 15.1 | 5.8[16.7 µM]
O=C(CCN1CCCCC1)NCC[C@@H]1CC[C@H](NC(=O)C2CCC2)[C@H](CO)O1 | -1.3 | 8.9[16.7 µM]
CC(C)C#Cc1cnc2c(c1)C(=O)N([C@@H](C)CO)C[C@@H](C)[C@@H](CN(C)C(=O)Nc1ccc(F)cc1)O2 | -7.9 | -7.5[16.7 µM]
CNC[C@H]1OCCCC[C@H](C)Oc2ccc(NS(=O)(=O)c3ccc(F)cc3)cc2C(=O)N([C@H](C)CO)C[C@@H]1C | 8.1 | -0.3[16.7 µM]
C[C@@H]1CCCCO[C@@H](CN(C)CC2CCCCC2)[C@@H](C)CN([C@@H](C)CO)C(=O)c2cc(NC(=O)Cc3ccccc3)ccc2O1 | 19.4 | -65.7[16.7 µM]
C[C@H]1CN([C@@H](C)CO)C(=O)Cc2cc(NC(=O)Cn3cnnn3)ccc2O[C@H]1CN(C)S(=O)(=O)c1cn(C)cn1 | -7.2 | -58.5[16.7 µM]
C[C@H]1CN([C@@H](C)CO)C(=O)c2cc(-c3ccccc3F)cnc2O[C@@H]1CN(C)C(=O)NC1CCCC1 | 13.1 | 0.1[16.7 µM]
C[C@H](CO)N1C[C@H](C)[C@H](CN(C)S(=O)(=O)c2ccc(F)cc2)Oc2ccc(NC(=O)CCN3CCOCC3)cc2C1=O | 7.4 | 11.9[16.7 µM]
CC(C)C(=O)Nc1ccc2c(c1)C(=O)N(C)[C@@H]1CC[C@@H](CC(=O)Nc3ccccc3)O[C@H]1CO2 | 5.1 | -6.0[16.7 µM]
C[C@@H]1CN([C@H](C)CO)C(=O)c2cc(-c3ccc(F)cc3)cnc2O[C@H]1CN(C)Cc1ccccn1 | -23.3 | 9.0[16.7 µM]
O=C(Nc1ccccc1)Nc1ccc2c(c1)[C@@H]1C[C@H](CC(=O)N3CCCCC3)O[C@H](CO)[C@@H]1O2 | 13.3 | -9.7[16.7 µM]
O=C(CCN1CCCCC1)NCC[C@@H]1CC[C@@H](NC(=O)Cc2cccnc2)[C@H](CO)O1 | -3.9 | 4.8[16.7 µM]
CC(C)NC(=O)N(C)C[C@@H]1Oc2c(NS(=O)(=O)c3ccc(Cl)cc3)cccc2C(=O)N([C@H](C)CO)C[C@H]1C | 18.8 | 8.3[16.7 µM]
C[C@@H]1CN([C@H](C)CO)S(=O)(=O)c2ccc(C#Cc3cccnc3)cc2O[C@H]1CN(C)C(=O)Nc1ccc2c(c1)OCO2 | 25.1 | -7.8[16.7 µM]
C[C@H](CO)N1C[C@H](C)[C@H](CN(C)Cc2ccc(C(F)(F)F)cc2)Oc2ccc(NC(=O)Cn3cnnn3)cc2CC1=O | 0.8 | 7.5[16.7 µM]
COCC(=O)Nc1ccc2c(c1)OC[C@H](C)NC[C@@H](C)[C@H](OC)CN(C)C2=O | 1.5 | -5.7[16.7 µM]
Cc1ccc(-c2ccc3c(c2)O[C@H](CN(C)C)[C@@H](C)CN([C@H](C)CO)S3(=O)=O)cc1 | 49.2 | -16.1[16.7 µM]
C[C@@H]1CN([C@@H](C)CO)C(=O)c2cc(Br)cnc2O[C@@H]1CN(C)Cc1ccccn1 | -18.9&-14.8 | -0.1
C[C@H](CO)N1C[C@H](C)[C@@H](CN(C)C(=O)c2ccccc2)Oc2ncc(Br)cc2C1=O | 8.2 | 6.0[16.7 µM]
CC(=O)N(C)C[C@@H]1Oc2ncc(-c3ccc(C#N)cc3)cc2C(=O)N([C@@H](C)CO)C[C@@H]1C | 17.3 | 1.0[16.7 µM]
COc1ccc(NC(=O)Nc2ccc3c(c2)C(=O)N([C@H](C)CO)C[C@H](C)[C@H](CN(C)Cc2ccc4c(c2)OCO4)OCCCC[C@@H](C)O3)cc1 | -3.2 | -15.0[16.7 µM]
COCCNC(=O)C[C@H]1C=C[C@@H](NC(=O)NC2CCCCC2)[C@@H](CO)O1 | -2.6 | -13.7[16.7 µM]
CN1C(=O)c2cc(NC(=O)c3cccc(Cl)c3)ccc2OC[C@@H]2O[C@H](CC(=O)NC3CCCCC3)CC[C@H]21 | 9.7 | 11.0[16.7 µM]
Cc1noc(C)c1NC(=O)N(C)C[C@H]1Oc2ncc(C#CC3CCCCC3)cc2C(=O)N([C@@H](C)CO)C[C@H]1C | 27.4 | 4.8[16.7 µM]
Cc1ccc(S(=O)(=O)Nc2cccc3c2O[C@H](CN(C)Cc2ccc(Oc4ccccc4)cc2)[C@@H](C)CN([C@@H](C)CO)C3=O)cc1 | -5.9 | -23.2[16.7 µM]
CC(C)NC(=O)Nc1ccc2c(c1)C(=O)N([C@H](C)CO)C[C@@H](C)[C@@H](CN(C)Cc1ccc(C(=O)O)cc1)OCCCC[C@@H](C)O2 | 6.7 | 4.7[16.7 µM]
C[C@@H]1CN([C@H](C)CO)C(=O)CCCn2nncc2CO[C@@H]1CN(C)Cc1cccc(O)c1 | -8.6 | 16.2[16.7 µM]
CCCC#Cc1cnc2c(c1)C(=O)N([C@H](C)CO)C[C@@H](C)[C@@H](CN(C)S(=O)(=O)c1cn(C)cn1)O2 | 16.9 | -14.6[16.7 µM]
COc1ccc(NC(=O)N(C)C[C@H]2Oc3ccc(NS(=O)(=O)c4ccc(Cl)cc4)cc3CC(=O)N([C@H](C)CO)C[C@H]2C)cc1 | 11.7 | -9.9[16.7 µM]
Cc1noc(C)c1NC(=O)Nc1ccc2c(c1)C(=O)N([C@H](C)CO)C[C@H](C)[C@@H](CN(C)C(=O)CCCN(C)C)OCCCC[C@H](C)O2 | 14.2 | -22.4[16.7 µM]
CNC[C@@H]1Oc2ccc(NS(=O)(=O)c3cn(C)cn3)cc2CC(=O)N([C@@H](C)CO)C[C@@H]1C | -6.8 | -3.1[16.7 µM]
CN1C(=O)c2cc(NC(=O)c3ccccc3)ccc2OC[C@@H]2O[C@H](CC(=O)O)CC[C@H]21 | -1.2 | 5.6[16.7 µM]
CCCN(C)C[C@H]1OCCCC[C@@H](C)Oc2ccc(NC(=O)Nc3ccc(C(F)(F)F)cc3)cc2C(=O)N([C@H](C)CO)C[C@H]1C | 14.2 | 8.1[16.7 µM]
C[C@@H]1CN([C@@H](C)CO)C(=O)c2cc(/C=C/c3ccccc3)cnc2O[C@H]1CN(C)S(=O)(=O)c1ccccc1 | 21.8 | 14.0[16.7 µM]
CN1CCN(C(=O)C[C@H]2C=C[C@H](NC(=O)Cc3ccccn3)[C@@H](CO)O2)CC1 | -15.3 | -6.7[16.7 µM]
C[C@H](CO)N1C[C@H](C)[C@H](CN(C)S(C)(=O)=O)Oc2ccc(NS(=O)(=O)c3ccc(F)cc3)cc2CC1=O | -18.1 | 10.2[16.7 µM]
C[C@H](CO)N1C[C@H](C)[C@@H](CN(C)C(=O)C2CCOCC2)Oc2ncc(C#CCc3ccccc3)cc2C1=O | 18.1 | -2.9[16.7 µM]
COc1ccccc1-c1cn(CC[C@H]2CC[C@H](NC(=O)C3CC3)[C@H](CO)O2)nn1 | 31.5 | -6.2[16.7 µM]
O=S(=O)(N[C@@H]1CC[C@H](CCn2cc(-c3ccc(F)cc3)nn2)O[C@@H]1CO)c1ccccc1F | 17.0 | -17.4[16.7 µM]

Look-ups from the entries so far:
Value of CC(C)NC(=O)Nc1ccc2c(c1)C(=O)N([C@H](C)CO)C[C@@H](C)[C@@H](CN(C)Cc1ccc(C(=O)O)cc1)OCCCC[C@@H](C)O2 in Env fusion inh: 4.7[16.7 µM]
Value of O=S(=O)(N[C@@H]1CC[C@H](CCn2cc(-c3ccc(F)cc3)nn2)O[C@@H]1CO)c1ccccc1F in UUG fidelity: 17.0

Env fusion inh: what is marked active above.
mol | UUG fidelity | Env fusion inh
C[C@@H]1CN([C@@H](C)CO)C(=O)Cc2cc(NC(=O)Nc3ccccc3)ccc2O[C@@H]1CN(C)S(=O)(=O)c1ccc(F)cc1 | 11.9 | 56.4*[16.7 µM]
